Rango complex inh: prevents formation of the Rango-importin beta complex. Q14974. Rango CFP/YFP FRET sensor + importin beta, 45 min. Potency, µM (titrated, usually from 92.2 µM), for the others: at the highest dose inhibition of complex formation. 340,000 compounds, 0.031% hits. AID 540263; active = rising FRET ratio curve, often small or poorly fitted; inconclusive = mostly compound fluorescence or quenching in the first reads; inactive = flat curves in all reads;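 further: potency means the concentration at half of the fitted maximal effect; 0% = DMSO wells and 100% = buffer wells lacking importin beta; nearly all actives have a fitted effect of over 15% in size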
Target sequence (Q14974 whole entry, looked up): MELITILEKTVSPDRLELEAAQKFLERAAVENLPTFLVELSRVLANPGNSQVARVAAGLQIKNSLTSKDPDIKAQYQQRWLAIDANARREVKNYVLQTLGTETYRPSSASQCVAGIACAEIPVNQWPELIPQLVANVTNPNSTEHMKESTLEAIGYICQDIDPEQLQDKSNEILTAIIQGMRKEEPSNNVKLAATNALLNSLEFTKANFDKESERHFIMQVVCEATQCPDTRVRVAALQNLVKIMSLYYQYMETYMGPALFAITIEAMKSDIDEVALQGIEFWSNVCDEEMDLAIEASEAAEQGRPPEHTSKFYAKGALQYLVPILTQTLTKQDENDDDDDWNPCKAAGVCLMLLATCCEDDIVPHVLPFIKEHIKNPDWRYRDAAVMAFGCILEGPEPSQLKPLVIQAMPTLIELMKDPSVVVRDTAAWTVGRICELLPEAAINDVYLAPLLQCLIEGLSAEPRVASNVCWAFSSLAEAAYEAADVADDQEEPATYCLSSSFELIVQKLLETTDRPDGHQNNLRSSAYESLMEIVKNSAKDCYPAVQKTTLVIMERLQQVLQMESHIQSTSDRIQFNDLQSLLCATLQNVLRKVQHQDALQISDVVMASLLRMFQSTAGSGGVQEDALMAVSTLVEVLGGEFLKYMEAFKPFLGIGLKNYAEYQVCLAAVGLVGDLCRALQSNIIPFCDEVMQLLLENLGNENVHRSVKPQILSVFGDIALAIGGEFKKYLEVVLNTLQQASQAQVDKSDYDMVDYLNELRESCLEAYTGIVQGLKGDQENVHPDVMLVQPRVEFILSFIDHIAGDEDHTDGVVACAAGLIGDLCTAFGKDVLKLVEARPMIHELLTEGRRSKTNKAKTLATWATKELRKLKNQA
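FRET biosensor Rango (snurportin 1 IBB between N-terminal EYFP and C-terminal Cerulean), 50 nM in PBS/1 mM DTT/0.02% Tween-20/0.1% BSA, preincubated 5 min RT with compound; 0.125 microM importin beta added, 45 min RT, CFP/YFP FRET ratio read.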
miR-21 reporter: raises the signal of a miR-21 reporter | HeLa miR-21 FLuc reporter, luciferase, 48 h | Potency, µM (top dose mostly 38.3 µM), for inactives: at the top dose reporter change, positive = more light | 340,000 tested, under 10 active; active = well fitted rising curve with a large enough effect; inconclusive = small, poorly fitted or top-dose-only effect; inactive = no such curve, though single readings can be large or run the other way;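 further: % of control where 0% means no effect; miR-21 action dims this reporter so a rising signal means less miR-21 action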
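HeLa cells endogenously expressing miR-21, stably carrying CMV-driven firefly luciferase with a downstream miR-21 binding site, 2000 cells/well. Titrations up to approximately 40 uM, 48 hours; luciferase luminescence read.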
Rango dissoc inh: prevents RanGTP from dissociating the Rango-importin beta complex. O95149+P62826. Potency, µM (series often up to 46.1 µM), without a hit: top-dose activity change, negative = inhibition. Biochemical FRET Rango-importin beta, RanGTP-induced dissociation. 340,000 compounds, 0.071% hits; active means falling FRET ratio curve, often poorly fitted, with flat reads before Ran was added; inconclusive means other falling curves, or compound fluorescence or quenching; inactive means flat or rising ratio curve;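 further: potency means the concentration at half of the fitted maximal effect; % of control where 0% means no effect; nearly all actives have a fitted effect of over 45% in size; -100% = wells without RanGTP and RCC1; the record marks most hits as doubtful in a second field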
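Recombinant Rango FRET biosensor (EYFP–snurportin 1 IBB–cerulean CFP10) at 0.1 uM premixed with 0.25 uM importin beta in PBS, 1 mM DTT, 0.02% Tween-20, 0.1% BSA. Compound added 5 min; RanGTP-RCC1 (0.6 uM Ran, 2 mM GTP, 0.2 uM RCC1) then triggers release, read at 45 min.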
GLA inh pH 4.5: inhibitors of human alpha-galactosidase A at pH 4.5; P06280; AID 1467; purified enzyme, 4-MU-alpha-Gal fluorescence, pH 4.5; activity change, negative = inhibition, % at 105 µM; 230,000 tested, under 10 active; inconclusive = small, poorly fitted or top-dose-only inhibition, or a rising curve; inactive = flat fitted curve, though single readings scatter; no compound was filed as active;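 further: 0% = full activity with enzyme and -100% = basal without enzyme; dose as in the result columns while the protocol names 77 µM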
Starred values were filed as active, the others as inactive; ? = inconclusive; . = not tested or not shown; [ ] = another dose, or the depositor's remark. This is a subset, so the mix of outcomes need not match the whole.

Rango complex inh	miR-21 reporter	SMILES	Rango dissoc inh	GLA inh pH 4.5
-2.2%	3%	CCCNCC1C(Oc2ccc(Cl)cc2)C(=O)N1c1ccccc1C (stereo not drawn)	-11%	-5
5.2%	-41%	O=C(NCCOc1ccccc1F)Nc1ccc(Br)cc1	-8%	6
-5.6%	.	CCN(CC)S(=O)(=O)c1ccc(C(=O)NNC(=O)C2COc3ccccc3O2)cc1 (stereo not drawn)	12%	.
-0.7%	1%	Cc1ccc(CCNC(=O)C2CC(=O)N(C3CCCCC3)C2)cc1 (stereo not drawn)	-8%	.
.	-6%	COc1ccc(C(=O)Nc2ccc3nc4n(c(=O)c3c2)CCCC4)cc1[N+](=O)[O-]	.	0
3.7%	1%	COc1ccc(CN2CCN(CC3CC3)CC2CCO)c(C)c1C (stereo not drawn)	35%	.
0.0%	-18%	Cc1cc(C(=O)Nc2sc(C)c(C)c2C#N)c(C)o1	-12%	-11
2.6%	-2%	CN1CCN(S(=O)(=O)c2cccc(C(=O)N3CCc4ccccc43)c2)CC1	6%	0
0.5%	4%	COc1ccc(S(=O)(=O)N2CCOCC2)cc1NC(=O)CSc1cccc[n+]1[O-]	-4%	-6
-0.4%	.	O=C(COc1ccc(S(=O)(=O)N2CCOCC2)cc1)N1CCOCC1	-8%	.
0.3%	-3%	O=C(OCCN1C(=O)CCC1=O)c1ccc(S(=O)(=O)N2CCCCC2)cc1	-10%	-2
1.1%	-6%	CCc1ccccc1NC(=O)CCCSc1nc2ccccc2s1	16%	-4
?	-6%	Cc1cc(C)c2c(c1)NC(c1cc3c(cc1Br)OCO3)C1CC=CC21 (stereo not drawn)	0%	4
3.4%	-4%	O=C1C=C(Nc2ccc(Cl)cc2)C(=O)N1c1ccc(Cl)cc1	-14%	-2
0.0%	.	CSCCC(NC(=O)c1ccccc1Br)C(=O)N1CCN(C/C=C/c2ccccc2)CC1 (stereo not drawn)	6%	.
-1.7%	.	CCCn1c(SCC(=O)Nc2cc(C(=O)O)ccc2C)nc2sc3c(c2c1=O)CCC3	-1%	.
1.8%	-1%	COc1ccc(OC)c(CNC(=O)CCn2nc(C)c3c(C)n(-c4ccccc4)nc3c2=O)c1	-11%	.
3.6%	5%	COc1ccc(C(=O)Nc2ccccc2C(=O)N2CCCCCC2)cc1OC	?	.
-5.4%	1%	CS(=O)(=O)NN1C(=O)c2ccccc2NC1c1cccs1 (stereo not drawn)	?	-1
?	-18%	Cc1cc(N2CCN(C)CC2)nc2ccc(NC(=O)CCC(=O)NCc3ccco3)cc12	-4%	13
1.0%	?	Cc1ccc(-c2noc(CCCC(=O)Nc3cccnc3)n2)cc1	0%	2
0.5%	-46%	Brc1c(CSc2nncc3ccccc23)nc2ccccn12	-15%	-2
-2.9%	?	CCOC(=O)N1CCN(c2c(NCc3ccc(F)cc3)c(=O)c2=O)CC1	25%	-10
-0.9%	-1%	C/C(=N\NC(=O)CCC(=O)NCc1ccccc1)c1ccco1	0%	.

Quoted from the listing:
COc1ccc(OC)c(CNC(=O)CCn2nc(C)c3c(C)n(-c4ccccc4)nc3c2=O)c1 in miR-21 reporter reads -1%
COc1ccc(C(=O)Nc2ccccc2C(=O)N2CCCCCC2)cc1OC in miR-21 reporter reads 5%
CSCCC(NC(=O)c1ccccc1Br)C(=O)N1CCN(C/C=C/c2ccccc2)CC1 (stereo not drawn) in Rango complex inh reads 0.0%
Cc1ccc(-c2noc(CCCC(=O)Nc3cccnc3)n2)cc1 in Rango complex inh reads 1.0%
O=C1C=C(Nc2ccc(Cl)cc2)C(=O)N1c1ccc(Cl)cc1 in GLA inh pH 4.5 reads -2
Cc1cc(N2CCN(C)CC2)nc2ccc(NC(=O)CCC(=O)NCc3ccco3)cc12 in miR-21 reporter reads -18%
Cc1cc(C)c2c(c1)NC(c1cc3c(cc1Br)OCO3)C1CC=CC21 (stereo not drawn) in GLA inh pH 4.5 reads 4

Returning to the listing, repeating the 2 entries before the break.
Rango complex inh	miR-21 reporter	SMILES	Rango dissoc inh	GLA inh pH 4.5
-2.9%	?	CCOC(=O)N1CCN(c2c(NCc3ccc(F)cc3)c(=O)c2=O)CC1	25%	-10
-0.9%	-1%	C/C(=N\NC(=O)CCC(=O)NCc1ccccc1)c1ccco1	0%	.
-0.4%	-3%	COc1ccccc1CP(=O)(c1ccccc1)c1ccccc1	0%	2
1.3%	1%	O=C(NC(=S)Nc1ccc(Oc2ccccc2)cc1)c1ccc(Cl)cc1	-1%	-6
-1.7%	3%	Cc1cccc(-c2nc(CS(=O)CC(=O)NCCCSC3CCCCC3)c(C)o2)c1 (stereo not drawn)	0%	-5
-2.6%	-34%	CCN(CC)C(=S)SCC(=O)c1c(C)[nH]c2ccccc12	6%	-7
-1.8%	4%	COc1ccc(N2CCN(C(=O)CNC(=O)Cn3c(C)cc4ccccc4c3=O)CC2)cc1	2%	2
2.2%	-7%	CCC1CCCCN1C(=O)N[C@@H](CCSC)C(=O)OC (stereo partly drawn)	0%	3
3.8%	.	O=C(NNC(=O)c1ccccc1Cl)c1csc(N2CCOCC2)n1	22%	.
2.6%	0%	O=C(NCc1ccc(N2CCCC2=O)cc1)C1CCC(=O)N(Cc2ccccc2F)C1 (stereo not drawn)	2%	.
-1.0%	.	Cc1ccc(S(=O)(=O)N2CCOCC2)cc1C(=O)OCCOc1cccc(Cl)c1	32%	.
-1.3%	-4%	COC(=O)c1c(NC(=O)CSc2ncnc3c2cnn3-c2ccccc2Cl)sc2c1CCCC2	-13%	-4
-0.1%	9%	COC(=O)c1c(NC(=O)/C=C/C(=O)O)sc(C)c1-c1ccc(C)c(C)c1	5%	-15
-1.3%	.	CC(NS(=O)(=O)c1ccc(Br)cc1)C(=O)Nc1nc2ccccc2[nH]1 (stereo not drawn)	0%	.
1.1%	1%	COC(=O)c1cn(NC(=O)c2cc(OC)c(OC)c(OC)c2)c(=O)c2ccccc12	22%	-8
-2.8%	1%	Cc1cccc(N(CC(=O)NCc2ccccc2)C(=O)Cn2nnc(-c3ccc(C)o3)n2)c1	1%	5
-1.9%	-4%	CCOC(=O)C1CN(S(=O)(=O)c2ccccc2)c2cc(S(=O)(=O)CC)ccc2O1 (stereo not drawn)	1%	-17
?	0%	Cc1csc(CNC(=O)CC2C(=O)NCCN2Cc2ccc(F)cc2Cl)n1 (stereo not drawn)	-9%	.
2.2%	.	CN(Cc1ccccc1)CC(O)CN(C)Cc1ccccc1	-5%	.
4.3%	-18%	COc1ccc(C2(O)CCN(C(=O)NC3CCCCC3)CC2)cc1	13%	-1
4.3%	4%	CCN1C(=O)CSc2ccc(C(=O)NCCCN3CCOCC3)cc21	18%	0
-3.5%	18%	O=C(Cc1ccc(Br)cc1)Nc1cccc(-c2cn3c(n2)SCC3)c1	-7%	-18
3.5%	-4%	CC(C)Oc1ccc(C(=O)NC(=S)Nc2ccc(CN3CCOCC3)cc2)cc1	8%	1
?	-9%	CC(C)(C)NC(=O)CSc1nc2cccnc2n1C1CCCCC1	3%	.
-3.6%	0%	O=C(NCCCN1CCOCC1)C1CC(=O)N(c2ccccc2)C1 (stereo not drawn)	2%	.
?	-41%	O=C(N/N=C\c1cc2c(cc1Cl)OCO2)c1cccs1	22%	.
-0.1%	6%	C=CCn1c(Br)nc2c1c(=O)n(C)c(=O)n2C	-3%	5
?	-24%	O=C1c2cccc3c(N4CCCCC4)ccc(c23)C(=O)N1c1cccc(O)c1	?	2
-2.9%	-4%	CCOc1ccc(NC(=O)Cc2c(O)c3ccccc3[nH]c2=O)cc1	0%	-4
2.8%	.	Cc1ccc(S(=O)(=O)Nc2ccc(-c3ccc4nncn4n3)cc2)cc1	1%	.
1.9%	.	CCN(CC)CC(O)c1ccc2ccc3ccc(O)cc3c2c1 (stereo not drawn)	0%	.
-0.5%	-2%	CN1CCN(NC(=O)NC2CCCCC2)CC1	-1%	.
0.4%	0%	CSc1ccc(/C=C/C(=O)OCC(=O)N(C)CCC#N)cc1	-7%	2
-4.3%	5%	CCOc1ccccc1N1CCN(S(=O)(=O)c2cccs2)CC1	3%	-9
-0.2%	0%	CCOC(=O)CN(C(=O)CN1CCOCC1)c1ccc(Br)cc1	11%	1
?	-2%	CC(C)c1c(C#N)c(N)nc(SCC(=O)c2cc3ccccc3oc2=O)c1C#N	-9%	-4
1.6%	-1%	C=CCNC(=O)Cn1c(=O)c2c(ncn2CCC(C)C)n(Cc2ccccc2)c1=O	-14%	.
13%	-10%	COCCn1c(C)cc(C(=O)CSc2cc(C)c3ccccc3n2)c1C	-13%	-8
0.9%	-4%	COc1ccccc1NC(=O)c1ccc(NC(=O)CSc2nnnn2C)cc1	-9%	2
-4.7%	-1%	O=C(Nc1nnc(C2CC2)s1)c1cccc(S(=O)(=O)N2CC(c3ccccc3)CC2=O)c1 (stereo not drawn)	-12%	6
?	-2%	COc1ccc(CCNC(=O)C2CC(=O)N(c3ccccc3)C2)cc1OC (stereo not drawn)	-13%	0
0.4%	-19%	CCNC(=S)NNC(=O)c1cc(-c2cccc(OCC)c2)nc2ccccc12	5%	7
2.8%	-5%	Cc1cc(C)c(S(C)(=O)=O)c(Oc2cccc(Cl)c2)n1	0%	-7
-5.3%	-28%	COC(=O)c1cn[nH]c1NC(=S)Nc1ccc(C)cc1Cl	26%	-1
-1.6%	-25%	Cc1ccc(NC(=O)Cn2c(=S)[nH]c3ccccc32)cc1	-17%	2
2.5%	-3%	Nn1c(SCC(=O)NC2CCCc3ccccc32)nnc1-c1cccs1 (stereo not drawn)	-3%	1
-0.9%	-3%	CC1Cc2ccccc2N1C(=O)COC(=O)c1ccc(S(=O)(=O)N(C)C)cc1 (stereo not drawn)	4%	-8
-0.1%	0%	O=C(NCCOC(=O)c1ccc(F)cc1)c1ccc(F)cc1	-17%	.
2.1%	-11%	CCOc1ccc(-n2c(=O)[nH]cc(C(=O)Nc3ccc(OC)c(OC)c3)c2=O)cc1	-7%	3[21.1 µM]
-2.4%	-3%	CCOC(=O)N1CCN(S(=O)(=O)c2ccc(C(=O)Nc3ccc4c(c3)C(=O)NC4=O)cc2)CC1	20%	-7
-4.4%	8%	COC(=O)c1ccc(CN(c2ccc(C(=O)O)c(O)c2)S(=O)(=O)c2ccc(Cl)c([N+](=O)[O-])c2)cc1	5%	.
-5.0%	5%	O=C1CC(N2CCN(C/C=C/c3ccccc3)CC2)C(=O)N1Cc1ccc(N2CCCC2=O)cc1 (stereo not drawn)	2%	-2
1.5%	.	COc1ccc(NC(=O)c2ccc3c(c2)NC(=O)CS3)cc1	-1%	.
0.0%	-7%	Clc1ccc(-c2n[nH]c3c2CCC3)c(Cl)c1	0%	-2
-3.2%	-1%	Cn1ncc(Oc2ccc([N+](=O)[O-])cc2)c(Cl)c1=O	-4%	-19
-1.3%	-4%	COc1ccc(N2C(=O)CC(Sc3ccccc3C(=O)O)C2=O)c([N+](=O)[O-])c1 (stereo not drawn)	-6%	4
-4.9%	.	COc1cccc(-c2ccc3ncnc(NCc4ccc5c(c4)OCO5)c3c2)c1	-8%	.
-0.4%	.	COc1cccc(NC(=O)CN(C)C(=O)c2ccccc2OCc2c(C)noc2C)c1	-1%	.
?	2%	Cn1c(=O)c2sccc2n2c(CCCC(=O)NC3CCN(Cc4ccccc4)CC3)nnc12	-1%	.
0.6%	.	COc1ccc2ccc3ccc(OC)c(OC(C)=O)c3c2c1	0%	.
-0.4%	-1%	COCc1nc(-c2cc(OC)c(OC)c(OC)c2)no1	3%	11
-0.7%	4%	CCCOc1ccc(Cn2cnc3ccccc32)cc1	-6%	-11
0.7%	.	c1ccc(CCc2ccccn2)cc1	-15%	.
1.3%	2%	Cc1snc(SCC(=O)N/N=C(\N)COc2ccc(F)cc2)c1C#N	0%	-3
-0.8%	5%	Cc1c(CCO)c(=O)oc2n[nH]c(-c3ccccc3)c12	11%	3

Screens (PubChem)
